Source: PubChem BioAssay (Johns Hopkins Ion Channel Center)
KCNQ2 pot – KCNQ2 (rat) channel potentiation | O88943 | CHO-K1 KCNQ2, FluxOR thallium flux fluorescence; stronger effect = higher value | B-score at 10 µM | 310,000 compounds, 0.54% hits;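 active = fluorescence ratio B-score at least 3 SD of library B-scores, with initial fluorescence B-score within 3 SD, cut at about 5.3 in these data; same plate scores as AID 2156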;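 also: B-score of peak minus minimum over baseline fluorescence ratio after K+ and Tl+ stimulus; positive B-score means potentiation of KCNQ2 with more thallium influx and brighter signal; only the inactives scoring about 0 or higher are listed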
Target sequence (O88943 whole entry, looked up): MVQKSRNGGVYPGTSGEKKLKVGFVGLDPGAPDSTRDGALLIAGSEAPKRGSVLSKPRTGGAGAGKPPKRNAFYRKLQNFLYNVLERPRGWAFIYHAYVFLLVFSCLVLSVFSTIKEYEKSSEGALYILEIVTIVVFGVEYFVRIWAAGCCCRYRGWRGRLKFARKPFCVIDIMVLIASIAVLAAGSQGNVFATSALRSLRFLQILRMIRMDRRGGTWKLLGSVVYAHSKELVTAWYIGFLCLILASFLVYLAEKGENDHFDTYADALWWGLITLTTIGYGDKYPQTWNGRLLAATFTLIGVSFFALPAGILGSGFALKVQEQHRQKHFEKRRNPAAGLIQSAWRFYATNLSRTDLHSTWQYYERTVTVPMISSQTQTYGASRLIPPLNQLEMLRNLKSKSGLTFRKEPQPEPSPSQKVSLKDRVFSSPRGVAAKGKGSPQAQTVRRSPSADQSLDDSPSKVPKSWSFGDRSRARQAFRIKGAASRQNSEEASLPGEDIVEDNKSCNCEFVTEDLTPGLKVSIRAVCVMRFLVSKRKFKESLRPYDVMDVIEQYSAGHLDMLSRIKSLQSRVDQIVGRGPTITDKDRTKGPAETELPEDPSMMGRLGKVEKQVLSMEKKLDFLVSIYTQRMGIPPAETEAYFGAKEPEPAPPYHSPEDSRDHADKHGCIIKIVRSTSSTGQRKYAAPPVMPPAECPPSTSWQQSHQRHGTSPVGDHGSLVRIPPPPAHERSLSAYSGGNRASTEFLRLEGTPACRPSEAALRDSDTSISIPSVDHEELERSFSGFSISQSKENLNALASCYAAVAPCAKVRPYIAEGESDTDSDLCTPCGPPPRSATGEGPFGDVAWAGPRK
KCNQ2 pot baseline – also measured in KCNQ2 pot; calls as there; B-score; compound at 10 µM; measured here: initial fluorescence intensity artifact check;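 brightness before thallium and not channel activity; 0 = typical well and far values either way flag optical interference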
* = called active by the depositor; / = not tested or not shown. Not all compounds are listed; the hit share may differ from the screen's.

SMILES	KCNQ2 pot	KCNQ2 pot baseline
CC(C)(C)c1nc(SCC(=O)c2ccccc2)c2ccccc2n1	19*	-0.63*
O=S(=O)(c1cccc2cccnc12)n1cnc2ccccc21	0.47	0.78
Cc1cc(C)n(-c2nncc(-c3ccccc3)n2)n1	0.35	-1.6
CCN(CC)CCn1cnc2c([nH]c3cccc(OC)c32)c1=O	0.6	1
O=c1[nH]c(/C(Cl)=C/c2cc(Cl)ccc2O)nc2cc(Cl)ccc12	0.81	-3
Cc1ccc(NS(=O)(=O)c2ccc(CCC(=O)N3CCOCC3)cc2)cc1	0.01	0.02
O=c1cc(N2CCCCC2)nc2n1CCCS2	0.31	2.1
COc1cc(/C=N/n2nnnc2N)ccc1OC(C)C	0.02	-0.16
O=C(CN1CCCN(S(=O)(=O)c2ccc(F)cc2)CC1)Nc1ccccc1Br	0.54	0
CC(C)C(OC(=O)c1cccs1)C(=O)NCc1ccc(F)cc1 (stereo not given)	2.3	0.7
O=C(N/N=C/c1ccc[nH]1)c1cccc([N+](=O)[O-])c1	0.2	0.18
CC(=O)c1ccc(O)c(CSC2=NCCS2)c1	0.12	-1.1
Cc1ccccc1NC(=O)CSc1nnc2ccc(-c3cccnc3)nn12	0.85	-0.26
O=[N+]([O-])c1cccc(N(CC2CO2)S(=O)(=O)c2ccccc2)c1 (stereo not given)	0.39	0.29
O=C(COc1cc(Cl)c(Cl)cc1Cl)NCCN1CCOCC1	2	-0.71
Cc1cccc(C)c1Nc1nnc(SC(C)C(=O)Nc2c(C)n(C)n(-c3ccccc3)c2=O)s1 (stereo not given)	0.02	-0.04
CC(NC(=O)CCc1nnc(-c2ccccc2)o1)c1ccccc1 (stereo not given)	0.63	1.1
Cc1ccc(OCC(=O)NC2=NCCS2)cc1	0.2	1.2
Oc1ccc(COCc2ccccc2)c2cccnc12	5.9*	1*
O=C1NN(c2ccc(Cl)c(Cl)c2)C(=O)/C1=C/c1ccc(-c2ccccc2C(=O)O)o1	2.5	1.5
O=C1CC(N(O)c2ccccc2)C(=O)N1c1ccc(Cl)c(Cl)c1 (stereo not given)	0.84	-1.4
CCC(C)[C@H](NC(=O)c1cn(CC)c2cc3c(cc2c1=O)OCO3)C(=O)NCCCn1ccnc1 (stereo not given in full)	0.07	1.7
CCC(C)(C)n1nnnc1C(c1ccccn1)N1CCCCC1 (stereo not given)	0.02	-0.57
CC(=O)N1CCc2cc(S(=O)(=O)CCC(=O)NCCc3ccc(Cl)cc3)ccc21	0.34	1.6
C/C=C(\C)C(=O)NCCN1C2=NC[C@@H](Cc3ccccc3)N2C[C@@H]1Cc1ccc(OC)cc1	1.5	2.5
Cn1nc(NC(=O)CC(C)(C)CC(=O)O)c2ccccc21	0.17	2.5
O=S(=O)(Oc1ccccc1N1CCCCC1)c1ccccc1	0.98	1.4
COc1ccc(OCc2cc(C(=O)N(C)Cc3cc(C)no3)no2)c(Cl)c1	0.3	-1.8
CC(C)CCNC(=O)CN(CCCN1CCOCC1)C(=O)Cn1nnc(-c2ccc(F)cc2)n1	0.04	-1.2
CCOC(=O)C1CCN(C(=O)COC(=O)c2ccc3c(c2)C(=O)N(c2ccc(OCC)cc2)C3=O)CC1	1.3	2.6
Cc1c(C)n(CCc2ccccc2)c2ncnc(NCCCN(C)C)c12	1.1	3
Cc1ccc(CN2CCC(n3nccc3NC(=O)C3CCOC3)CC2)cc1 (stereo not given)	0.07	0.35
COC(=O)N/N=C/c1ccccc1	1.7	-0.62
CC(C)(C)c1ccc(NC(=O)Nc2ccc3ccccc3n2)cc1	0.21	-0.04
C[C@]1(C(=O)O)Cc2oncc2C[C@@H]1C(=O)O	2.2	-0.23
COCCCNc1ncnc2sc3c(c12)CCC(C)C3 (stereo not given)	4.5	-0.3
O=C1NC(=O)C2(COC(c3cccnc3)OC2)S1 (stereo not given)	1.1	-1.4
COc1cccc(/C=N/NC(=O)c2csc(-n3nc(C)cc3C(F)(F)F)n2)c1	0.03	-0.45
CCOC(=O)C(=CN(CCc1ccccc1)CC(=O)OC)C(=O)OCC	1	0.88
COC(=O)c1c(NC(=O)CN2CCN(C(=O)c3ccco3)CC2)c2c(C)cccc2n1C	1.2	-0.13
O=S(=O)(Nc1cccc(-n2cnnn2)c1)c1ccc(Cl)nc1	0.22	0.08
O=C(COC(=O)c1cccc(Cl)c1)NCCN1C(=O)CSC1=O	0.05	1.4
O=C(Cn1nnc2ccccc21)NC1CCCCC1	0.16	0.75
Cc1ccc(OCC(=O)N2CCN(S(C)(=O)=O)CC2)cc1	1.2	0.74
Cc1ccc(-c2nc(-c3ccccn3)no2)cc1	1.2	0.04
CCCNC(=O)Cn1cnc([N+](=O)[O-])n1	0.23	0.07
Cc1ccc(C)c(SCC(=O)Nc2ccc(S(=O)(=O)Nc3ncccn3)cc2)c1	1.5	-0.71
COc1cccc(N/N=C/c2cccc(Br)c2O)c1	0.41	0.02

7 compounds picked at random from those above, as already listed:
SMILES	KCNQ2 pot	KCNQ2 pot baseline
COc1cccc(N/N=C/c2cccc(Br)c2O)c1	0.41	0.02
CCOC(=O)C(=CN(CCc1ccccc1)CC(=O)OC)C(=O)OCC	1	0.88
O=C(Cn1nnc2ccccc21)NC1CCCCC1	0.16	0.75
CCCNC(=O)Cn1cnc([N+](=O)[O-])n1	0.23	0.07
O=C1NC(=O)C2(COC(c3cccnc3)OC2)S1 (stereo not given)	1.1	-1.4
Cc1ccc(OCC(=O)N2CCN(S(C)(=O)=O)CC2)cc1	1.2	0.74
COC(=O)c1c(NC(=O)CN2CCN(C(=O)c3ccco3)CC2)c2c(C)cccc2n1C	1.2	-0.13

Further compounds
SMILES	KCNQ2 pot	KCNQ2 pot baseline
O=C(N/N=C/c1ccncc1)C1CC1C(=O)N/N=C/c1ccncc1 (stereo not given)	0.68	0.63
CCCc1cc(C(=O)Nc2cccc([N+](=O)[O-])c2)cs1	2.5	-2.6
Cc1ccc2nsnc2c1NC(=O)c1ccc([N+](=O)[O-])o1	1.4	0.96
CC(=O)OCC(=O)[C@@]1(O)CC[C@H]2[C@@H]3CCC4=CC(=O)C=C[C@]4(C)[C@H]3C(=O)C[C@@]21C	0.12	-2.3
O=C(COc1ccc(F)cc1)OCCN1CCOCC1	0.22	0.2
COc1ccc(OC)c(NS(=O)(=O)c2c(C)nc3sccn3c2=O)c1	2.4	0.72
Cc1ccc(Oc2ccc(S(=O)(=O)N3CCOCC3)cc2C(N)=O)cc1C	0.35	-0.63
COc1ccc(NC(=O)CCCNC(=O)Cn2cnc3sc(C)c(C)c3c2=O)c(OC)c1	1.3	0
COCCn1c(N2CCN(c3ccccc3)CC2)nc2c1c(=O)n(C)c(=O)n2C	0.04	0.48
Cc1cnc(C(=O)NCCc2ccc(Cl)cc2)cn1	0.34	1.4
Clc1cccc(OCCCCN2CCCCC2)c1	0.1	0.12
COc1cc(/C=C2/C(=N)N3C=CSC3=NC2=O)ccc1OCCCOc1cc(C)ccc1C	0.51	0.59
CC(C)CC1Nc2ccc(C(=O)NCCCN3CCOCC3)cc2NC1=O (stereo not given)	0.44	0
O=C(Nc1cccc2ccccc12)c1ccccc1Cl	2.1	0.53
CCOC(=O)Cn1cnc2scc(-c3ccc(C)cc3)c2c1=O	1.1	-0.93
COc1cc(OC)cc(C(=O)NC(=S)Nc2ccc(NC(=O)c3ccco3)cc2)c1	2.1	-2.1
COc1ccc(NC(=O)CCS(=O)(=O)c2ccc3c(c2)oc(=O)n3C)cc1OC	1.6	0.01
Cc1ccc2c(c1)N(CC(=O)Nc1ccc3c(c1)OCCO3)C(=O)CO2	0.44	-2.5
COc1ccc2c(c1)-c1nc(NC(=O)c3cccs3)sc1CC2	1.1	1.2
CC(C)Oc1ccc(C(=O)NCc2cccs2)cc1	0.44	0.29
CCCOP(=O)(OCCC)c1c([N+](=O)[O-])cc(C(F)(F)F)cc1[N+](=O)[O-]	0.08	0.32
COc1ccc(Nc2ncc(C(=O)N3CCN(c4ccc(F)cc4)CC3)c3ccccc23)cc1	0.7	-0.81
Cc1ccc(-n2nc(C(=O)O)c(C)c(C#N)c2=O)cc1Cl	1.5	0.34
O=C(Nc1ccc([N+](=O)[O-])cn1)c1cc(-c2cccc(Cl)c2)nc2ccccc12	-5.6	/

Reformatted: 4 of the compounds above.
> CC(C)Oc1ccc(C(=O)NCc2cccs2)cc1
  KCNQ2 pot: 0.44 | KCNQ2 pot baseline: 0.29

> COc1ccc(NC(=O)CCS(=O)(=O)c2ccc3c(c2)oc(=O)n3C)cc1OC
  KCNQ2 pot: 1.6 | KCNQ2 pot baseline: 0.01

> O=C(Nc1cccc2ccccc12)c1ccccc1Cl
  KCNQ2 pot: 2.1 | KCNQ2 pot baseline: 0.53

> Cc1ccc2c(c1)N(CC(=O)Nc1ccc3c(c1)OCCO3)C(=O)CO2
  KCNQ2 pot: 0.44 | KCNQ2 pot baseline: -2.5

Continuation.
SMILES	KCNQ2 pot	KCNQ2 pot baseline
O=C(c1cc2n(n1)C(C(F)(F)F)CC(c1ccc(Cl)cc1)N2)N1CCCC1 (stereo not given)	0.13	1.6
Cc1cc(OC(=O)c2ccccc2C(F)(F)F)c([N+](=O)[O-])c(=O)[nH]1	0.16	-0.62
CCOc1ccc(NC(=O)N2CCc3ccccc3C2)cc1	0.41	0.81
CCOC(=O)N1CCN(C(=O)c2ccccc2NC(=O)c2ccc(Br)cc2)CC1	0.7	-0.04
CN(C)c1ccc(NC(=O)Oc2ccccc2)cc1	0.68	0.04
CC(=O)N1CCN(c2c(F)c(F)c(C(F)(F)F)c(F)c2F)CC1	5.2	-1.5
CCOC(=O)c1c(NC(=S)Nc2ccc(Cl)cc2)sc(C)c1C	1.5	-0.3
O=C(Nc1cccc([N+](=O)[O-])c1)c1cc(S(=O)(=O)Nc2ccccn2)ccc1Cl	1.1	-1.3
CCCc1ccc2oc(C(=O)NCCc3cnn(C)c3)c(C)c2c1	1.3	-0.56
Cc1cc(S(=O)(=O)NCC(C)C)ccc1OCC(=O)NCc1ccccn1	0.69	-0.01
O=C(NCCc1ccc(F)cc1)c1ccncc1	0.3	0.75
Cc1ccccc1Nc1ncnc2c1cnn2C	0.85	0.43
Cc1ccc(S(=O)(=O)NCCC(c2ccccc2)c2ccccc2)cc1C(=O)O	0.3	-3.3
O=C(COc1ccccc1)N1CCN(C(=O)c2ccco2)CC1	0.33	0.14
COc1cc(C)cc(CN2CCC(Cc3ccccc3)CC2)c1O	1.6	-0.01
O=C(NCc1ccccn1)c1cc(Br)ccc1Cl	0.16	-0.1
COc1ccc(C2CC(c3ccccc3)=NN2C(=O)COC(=O)c2cccc(S(=O)(=O)N3CCOCC3)c2)cc1 (stereo not given)	1.2	2.1
COc1cc(-c2cc(=O)c3c(O)cc(O)cc3o2)ccc1O	1.6	-1.4
Cc1cc(C2C(=O)c3ccccc3C2=O)c(C)c(C)c1C	0.02	-1.3
C=CCNC(=S)NC(=O)c1csc([N+](=O)[O-])c1	4.2	-0.77
Cc1[nH]n(C(N)=S)c(=O)c1N=Nc1ccc([N+](=O)[O-])cc1Cl	4	-0.99
COc1ccccc1/C=C/C(=O)OCCN1C(=O)c2ccccc2C1=O	1	1.2
Cc1ccc(NC(=O)CC(O)(C(F)(F)F)C(F)(F)F)cc1	9.7*	1.2*
CC(CCc1ccccc1)NC(=O)c1cnc(Cl)c(Cl)c1 (stereo not given)	0.55	-1.4
COC(/C=C/Nc1ccc(C)c(C)c1)=C(C#N)C#N	0.37	0.11
COc1ccc(NC(=O)c2cccnn2)cc1	1.4	1.3
COc1ccc2nc(-c3ccc(N)cc3)[nH]c2c1	2.3	-1.2
CCOC(=O)C(NC(=O)NCc1ccc(F)cc1)(OCC)C(F)(F)F (stereo not given)	0.51	1.6
NC(=O)Cn1nnc(-c2ccc(C(F)(F)F)cc2)n1	0.02	1
NNC(=O)CNC(c1ccccc1)c1cc(Br)ccc1NC(=O)c1ccccc1Br (stereo not given)	0.44	-0.46
Cc1c(C(=O)Nc2ccccc2F)sc2nc3n(c(=O)c12)CCC3	1.3	0.23
CCOc1ncccc1C(=O)OCC(=O)Nc1ccc2c(c1)OCO2	0.67	-0.57
CCC(=O)Nc1nc(C)c(C(=O)Nc2cccc(Cl)c2)s1	1.6	-2.1
COc1cc(C(=O)NC2CCCCCCC2)cc(OC)c1OC	0.9	0
Cc1nc(NC(=O)c2ccccc2)sc1-c1csc(Nc2cccc(Cl)c2)n1	2.1	-0.2
CCOc1cc(C)nc(Oc2ccc(=O)[nH]n2)n1	0.02	-0.21
Cc1ccc(-c2nnc(CN3CCN(C)CC3)o2)cc1	0.03	0.88
N#C/C(=N\Nc1ccccc1)C(=N)N1CCCCC1	2.2	-2.6
O=C(CN1N=C(c2ccccc2)CCC1=O)NCc1cccs1	0.21	0.16
Cc1cc(C)nc(SCc2nnc(SCC(=O)Nc3nc(-c4ccccc4)cs3)n2C)n1	0.05	1.1
CCCCC(=O)NC(=S)Nc1cc(C(=O)O)ccc1Cl	0.48	-0.25
Cc1ccc(NC(=O)Cn2c(=O)oc3ccccc32)cc1C	0.01	-1
CCOC(=O)c1ccc(NC(=O)c2cc3ccccc3o2)cc1	0.17	1.2
CC12CCC(C(=O)NCc3ccc(F)cc3)(OC1=O)C2(C)C (stereo not given)	0.17	0.73
CCCCCCCC(=O)NNC(=O)c1ccc(F)cc1	0.24	-0.08
COc1cc2c(cc1OC)C(COc1ccccc1OC)N(C(=O)C(C)C)CC2 (stereo not given)	0.77	0.99
COc1ccc(-c2nnc(SCC(=O)Nc3ccccc3OC)o2)cc1	0.43	1.6
Cn1cc(S(=O)(=O)c2ccccc2)n(C)c1=O	2.5	0
CC1=C(C(N)=O)C(c2sccc2C)n2nnnc2N1 (stereo not given)	0.36	0.03
CCOC(=O)C1=C(C)N(C)C(=O)NC1c1cc2c(cc1Br)OCO2 (stereo not given)	0.83	-0.03
